Sa RN4220 lethal: growth inhibition of S. aureus RN4220, primary screen, OD600 | 16 h | inhibition, % (concentration not given with the values) | actives 0.33% (n = 330,000);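 active = z-score of -3 or lower and OD600 up to 0.18 on both plates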;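 also: plate controls were untreated cells for no effect and reference antibiotic for full effect; stock transfer was 100 nL into about 80 µL; one replicate is shown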
Autofluor counter: counter-screen for toxin protease inhibitors: compound fluorescence; fluorescence intensity (test concentration not listed); compound autofluorescence counterscreen, microsphere flow cytometry; hits give high values; actives 3.1% (n = 360,000);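 active = at least 3 SD above the mean of all compounds, about 16000 in these data; inconclusive = too few beads counted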;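 also: 100 nL of 1 mM stock went into each well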
BJeLR viability: MLPCN primary cell-based screen for lethality selective to Ras in HRASV12 cells; BJeLR (HRASV12) viability, CellTiter-Glo ATP luminescence, 48 h; reference of the scale not given here; inhibition, % (test concentration not listed); actives 0.17% (n = 300,000);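 active = replicate mean above 50%; inconclusive = above 50% but judged a plate artefact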;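 also: 50 nL library stock added to about 25 µL; numbers are from one replicate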
Sa ugtP lethal: growth inhibition of ugtP-null S. aureus, primary screen, RN4220 ugtP deletion, OD600 | 16 h; some inactives read as strong as hits | growth inhibition, % (test concentration not listed) | actives 0.54% (n = 330,000);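 active = z-score under -3 and OD600 up to 0.15 on both plates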;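 also: plate controls were untreated wells for no effect and antibiotic for full effect; wells of about 80 µL received 100 nL stock; the first replicate is given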
Mtb hypoxia rep: PubChem AID 1159583 | fluorescence inhibition, % (concentration not given with the values) | M. tuberculosis hypoxia-regulated fluorescent reporter, fluorescence | actives 0.1% (n = 300,000);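 active = 35 to 45% if threefold the growth effect, above 45% if 1.5-fold the growth effect; inactive = the rest, general growth blockers included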;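 also: wells of about 50 µL received 100 nL stock; 0% = vehicle wells and 100% = reference inhibitor wells; whole bacteria with a GFP reporter of the hypoxia response; strong numbers were not always called active; many hits fall short of the cut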
PrP 5UTR inh: inhibition of PrP 5' UTR reporter expression | cell-based PrP 5' UTR mRNA reporter, plate reader | inhibition, % (test concentration not listed) | actives 0.35% (n = 340,000);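 active = every replicate at 50% or more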;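 also: 0 = median of the neutral control wells; tested in H4 reporter cells; numbers are from one replicate; inactives centre near -14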
Mtb hypoxia rep growth: second read-out of Mtb hypoxia rep, no call of its own (marks repeat the call); growth inhibition, %; measured here: M. tuberculosis growth (absorbance);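 0% = vehicle and 100% = reference antibiotic; read after six days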
Starred values were filed as active, the others as inactive; ? = inconclusive; nt = not tested or not shown.

Each structure is followed by: Sa RN4220 lethal	Autofluor counter	BJeLR viability	Sa ugtP lethal	Mtb hypoxia rep	Mtb hypoxia rep growth	PrP 5UTR inh
Cc1ccc(Cl)cc1NC(=O)COC(=O)c1ccccc1O
    1.8	4555	3	6	6	0	-21
O=c1c2ccccc2ncn1CCCSc1ccccc1
    0.5	3253	4	9	4	0	3
CC(C(=O)NC1CCCCC1)N1C(=O)c2cccc3cccc1c23 (stereo not given)
    -0.8	5614	-2	5	8	8	-18
COc1ccccc1CNC(=O)C(C)NS(=O)(=O)c1ccc(C)cc1 (stereo not given)
    3.8	7547	3	1	17	3	-1
COc1ccc(-c2c3c(nc4sc(C(=O)Nc5cc(C)on5)c(N)c24)CCC3)cc1
    3.0	9217	-6	-13	4	-5	1
NC(=NOC(=O)Cc1ccc([N+](=O)[O-])cc1)c1ccccn1
    3.5	nt	nt	1	12	6	nt
CN1CCN(C(=O)c2cc3nc(-c4ccc(F)cc4)cc(C(F)(F)F)n3n2)CC1
    1.4	4316	5	16	nt	nt	-10
CCC(C)c1ccccc1NC(=O)c1[nH]c(C)c(C(C)=O)c1C (stereo not given)
    1.1	5918	-4	5	8	4	-13
COc1ccc(-c2sc3cc(OC)c(OC)cc3c2C#CC(C)(C)O)cc1
    3.4	3442	nt	-20	6	5	-14
Cc1ccc(NC(=O)N[C@@H](CC(C)C)C(=O)O)c(C)c1
    14	nt	-4	6	6	5	-30
O=C(Cn1ccc([N+](=O)[O-])n1)c1ccccc1
    2.4	2446	-2	0	5	8	-11
Cc1cccn2c(NCC3CCCO3)c(C(C)C)nc12 (stereo not given)
    3.8	9358	-1	6	3	9	-22
COc1ccc(NC(=O)CN(C)C(=O)c2cccc(S(=O)(=O)Nc3ccc(OC)cc3)c2)cc1
    -1.9	4280	8	1	2	-3	-13
C=CC1CN2CCC1CC2C(OC(C)=O)c1ccnc2ccc(OC)cc12 (stereo not given)
    2.8	3959	-26	6	15	-1	-20
COc1ccc(NC(=O)N(C)C[C@H]2Oc3ccc(NC(=O)Nc4c(C)noc4C)cc3C(=O)N([C@H](C)CO)C[C@H]2C)cc1
    -8.5	3586	nt	-8	1	9	-5
CCOc1ccccc1OCCOc1ccccc1CC
    14	4700	13	43	nt	nt	-12
CC(Sc1nncn1C)C(=O)Nc1ccc(S(N)(=O)=O)cc1 (stereo not given)
    1.5	4280	2	0	12	7	7
COc1ccc(-[n+]2c(C)cc(/C=C3\Sc4ccccc4N3C)cc2C)cc1
    100*	4610	45	100*	nt	nt	66*
COc1ccccc1N1CCN(C(=O)C2=CC=CN3CCS(=O)(=O)N=C23)CC1
    3.2	8496	nt	5	3	3	-22
CCCCCCCCN1C(CC(=O)O)c2cc(F)ccc2S1(=O)=O (stereo not given)
    14	nt	nt	7	13	13	nt
O=C(Nc1ccc(C(=O)O)cc1)/C(=C\C=C\c1ccccc1)NC(=O)c1ccccc1Br
    2.9	4073	1	-3	-3	1	11
S=C(Nc1ccccc1Cl)N1CCN(Cc2ccccc2)CC1
    3.3	2557	-5	1	nt	nt	-22
O=C(C1COc2ccccc2O1)N1CCN(c2nc3ccccc3s2)CC1 (stereo not given)
    -1.9	6252	8	1	7	8	-3
COc1ccc(NC(=O)C2CCC2)cc1S(=O)(=O)N1CCOCC1
    -1.7	nt	nt	2	5	4	nt
CC1(C)CC(=O)c2cc(OCC(=O)N3CCN(c4ccccc4F)CC3)ccc2O1
    3.5	12684	3	-5	7	15	-14
Cc1ccc(NC(=S)NC2CCCC2)cc1
    7.5	3011	-7	4	-2	-1	-35
c1ccc2c(c1)ccc1ccccc12
    2.8	5652	nt	-1	nt	nt	-13
COc1cc(C2NC(=O)NC(C)=C2C(=O)OCC2CCCCC2)cc(Cl)c1O (stereo not given)
    0.0	3309	-1	3	1	-3	-10
CCCCc1nc2sc3c(=O)[nH]cnc3c2c2c1CCCC2
    4.3	4899	3	10	5	-5	1
O=C(CN1CCN(S(=O)(=O)c2ccccc2)CC1)NCCc1ccccc1
    5.2	4683	0	7	12	11	3

Rewritten with bars between the fields: entries from further up.
canonical_smiles | Sa RN4220 lethal | Autofluor counter | BJeLR viability | Sa ugtP lethal | Mtb hypoxia rep | Mtb hypoxia rep growth | PrP 5UTR inh
CCCCc1nc2sc3c(=O)[nH]cnc3c2c2c1CCCC2 | 4.3 | 4899 | 3 | 10 | 5 | -5 | 1
O=C(CN1CCN(S(=O)(=O)c2ccccc2)CC1)NCCc1ccccc1 | 5.2 | 4683 | 0 | 7 | 12 | 11 | 3

Next section.
Each structure is followed by: Sa RN4220 lethal	Autofluor counter	BJeLR viability	Sa ugtP lethal	Mtb hypoxia rep	Mtb hypoxia rep growth	PrP 5UTR inh
O=C(Cc1ccc(Nc2nc3ccc(Br)cc3[nH]2)cc1)NCCc1cccs1
    0.3	4028	-1	6	-21	-9	-8
Cc1ccc(N2CC(C(=O)NCC3CCCO3)CC2=O)cc1Cl (stereo not given)
    -3.5	2515	12	3	14	5	-9
O=C(c1cc(C2CC2)on1)N1CCCC(N2CCN(c3cccc(C(F)(F)F)c3)CC2)C1 (stereo not given)
    nt	?	-8	nt	nt	nt	-18
N=C(N)SCc1ccccc1Cl
    0.7	2255	8	-10	-3	15	-40
CCCNC(=O)Cn1cnc2sc(C(=O)N3CCN(CCC)CC3)c(C)c2c1=O
    -0.8	5435	-3	2	nt	nt	-15
COc1ccc(CC(=O)OCC(=O)Nc2cc(Cl)ccc2C)cc1
    -2.0	3790	nt	-2	5	2	-8
COc1ccc(C=NNc2nnc(Cc3ccc(OC)c(OC)c3)c(=O)[nH]2)cc1OC
    -2.0	nt	nt	0	-13	-3	nt
COC(=O)c1cc(N=CC2=C(O)CC(C)(C)CC2=O)cc(C(=O)OC)c1
    2.6	2514	1	-5	2	3	-8
O=C(NCCS(=O)(=O)N1CCN(c2ccccc2F)CC1)C1CC(=O)N(c2ccc(F)cc2)C1 (stereo not given)
    3.9	5620	-13	4	10	-2	2
Cc1ccc(C(=O)NN=CC(=O)c2ccccc2)c(C)c1
    3.8	3288	nt	6	9	6	-140
CC(=O)Nc1ccc2c(CSc3nncs3)cc(=O)oc2c1
    2.5	4563	26	8	15	8	-12
Cc1cccc(C=Nn2c(-c3ccncc3)n[nH]c2=S)c1
    5.9	nt	nt	1	-2	-4	nt
CC1CCN(c2ncnc3c2cnn3Cc2ccc(Cl)cc2)CC1
    -5.4	3107	nt	1	nt	nt	-10
CNc1nc(C)cc(C)c1S(=O)(=O)c1ccc(C)cc1
    3.5	2789	0	1	nt	nt	-5
Cc1cc(OCC(=O)Nc2cccnc2)c2c(C)c(C)c(=O)oc2c1
    -5.7	5418	-2	6	8	-5	-18
COc1ccc(C(=O)NCC(=O)NN=Cc2c(C)[nH]c3ccccc23)cc1
    -1.2	nt	nt	6	1	-3	nt
CC(C)C(OC(=O)c1ccco1)C(=O)NCc1ccccc1 (stereo not given)
    -0.5	8946	-2	-4	-10	-11	-18
CCOC(=O)c1c(C)[nH]c(C)c1C(=O)CSc1nnc(N)s1
    3.7	3525	9	3	2	4	-17
O=C(COC(=O)CCC(=O)c1cccs1)NCc1ccc(Cl)cc1
    -0.2	3208	2	1	7	4	-22
COc1ccc(C(=O)c2sc3nc(-c4ccccc4)ccc3c2N)cc1OC
    1.8	3442	-10	-7	nt	nt	-13
COc1ccc(C)cc1NC(=O)c1cc(S(=O)(=O)N2CCCCC2)ccc1N1CCOCC1
    1.1	2993	nt	3	2	0	6
CCOc1cccc(C(=O)Nc2ccccc2C(=O)N2CCOCC2)c1
    4.5	5207	-1	4	3	4	-15
Cc1cc(C)n2c(SCC(=O)Nc3ncc(C(F)(F)F)cc3Cl)nnc2n1
    9.1	3739	2	4	nt	nt	-5
O=C(c1ccccc1SCc1ccccc1)N1CCOCC1
    -3.7	4188	-11	1	-2	12	-5
Cc1ccc(S(=O)(=O)N(C)c2ccc(OC(C)C(=O)N(C)c3ccccc3)cc2)cc1 (stereo not given)
    0.4	5863	nt	-5	-5	12	-10
O=C(NCCN1CCN(S(=O)(=O)c2ccc(F)cc2)CC1)C(=O)NCc1ccccc1
    5.9	6079	9	-4	6	5	-8
O=C(NNc1ccccc1)c1ccccc1
    2.2	3532	nt	3	6	3	-21
CCOc1ccc(C(=O)NCC(C)NC(=O)c2ccc(OCC)cc2)cc1 (stereo not given)
    4.7	4340	-4	10	16	4	-14
O=C(CNC(=O)c1ccc(Br)cc1)NCC(=O)OCC(=O)c1ccc([N+](=O)[O-])cc1
    8.5	7480	-6	3	9	-1	-12
Cc1cc(=O)oc2cc(OCCSCCN3CCCCC3)ccc12
    1.8	3523	9	11	4	1	-10
CC1(CCC#N)N=C(SCCC#N)N(c2ccccc2)C1=O (stereo not given)
    4.3	23294*	3	4	0	-2	-19
CC(=NNS(=O)(=O)c1ccccc1)c1ccc2c(c1)OCO2
    2.2	nt	nt	2	0	2	nt
COc1ccc(C(CNC(=O)COc2ccccc2OC)N2CCCCC2)cc1 (stereo not given)
    2.6	6277	3	11	8	3	-10
O=C(Nc1cccc(O)c1)c1c(O)c2ccccc2[nH]c1=O
    0.0	3666	-8	-5	-6	1	-92
CC(=O)c1ccc(N2CCN(C(=O)c3cccs3)C(C)C2)c(F)c1 (stereo not given)
    6.3	3907	-3	7	10	-3	-18
COc1ccccc1NC(=O)COC(=O)Cc1ccc(S(=O)(=O)N2CCCCC2)s1
    9.7	2157	1	-1	10	3	-37
CC(C)N(C(=O)CSc1nnnn1C1CCCC1)C(C)C
    3.8	7019	2	7	10	6	-9
C=C(C)Cn1c(CNC(C)=O)nc2ccccc21
    2.8	5985	-6	0	1	2	-18
Cc1cc2nc3c(=O)[nH]c(=S)[nH]c3nc2cc1NC(=O)C(F)(F)F
    2.1	4037	-2	3	-2	9	-8
COC(=O)c1ccc(NC(=O)Cn2nnc(-c3cccs3)n2)cc1
    -1.9	4686	0	-3	-7	-1	-18
O=C(O)c1cccc(NC(=O)c2ccc(N3C(=O)c4ccc(C(=O)Nc5cccc(C(=O)O)c5)cc4C3=O)cc2)c1
    7.4	4355	-6	-9	6	-2	-9
COc1ccc(/C=C2\C(=O)NC(=S)N(C)C2=O)cc1C
    7.4	4393	5	3	1	1	-18
Nc1nonc1C(=O)NCCNC(=O)c1cccc(Cl)c1
    -2.7	4154	-1	0	-5	3	6
Cc1c(C)n(C)c2ccc(C(=O)N3CCN(c4ccccc4)CC3)cc12
    3.2	4909	6	3	10	6	-12
CCn1ncc(CNC(=O)C2(C)CC2(Cl)Cl)c1C (stereo not given)
    5.3	10762	9	0	5	-2	-9
Cc1c(-n2c(=O)n(Cc3ccccc3)c(=O)c3[nH]cnc32)cccc1S(C)=O (stereo not given)
    2.2	3990	1	14	7	15	-2
Cc1ccccc1NS(=O)(=O)c1ccc(C(=O)N2CCCC(C(F)(F)F)C2)cc1 (stereo not given)
    4.3	4194	1	-1	9	-1	-5
CC(C)(O)[C@H](O)COc1c2ccoc2cc2oc(=O)ccc12
    nt	2990	-9	nt	nt	nt	-7
O=C(c1ccc(S(=O)(=O)N2CCCCC2)cc1)c1nnc(-c2ccc(Cl)cc2)o1
    12	2858	4	3	-7	5	-9
O=C1CN=C(Nc2ccc(Cl)cc2)N1c1ccccc1
    5.7	2439	-3	11	3	5	-8
COc1ccc2c(CCN)c[nH]c2c1
    -15	2970	-2	-6	10	7	-12
Cc1cc(=O)oc(C)c1C(=O)Nc1ccc(Cl)cn1
    1.0	2715	-4	1	nt	nt	-16
Cc1c(C(=O)N2CCN(c3ccccc3F)CC2)sc2nc(-c3ccccc3)cn12
    -1.9	21586*	-3	-6	4	2	-8
COc1ccc(C(CNC(=O)c2cccc(S(=O)(=O)Nc3ccccc3OC)c2)N2CCCC2)cc1 (stereo not given)
    1.4	11267	-2	11	2	0	-17
CCOc1ccccc1N1C(=O)c2cccnc2C1=O
    4.5	6421	22	-3	5	-2	-9
O=c1[nH]c(=S)n(Cc2ccc(F)cc2)c(O)c1C=NCC1CCCO1 (stereo not given)
    5.7	4433	6	-2	15	1	-22
c1ccc(Cc2nc3ccccc3[nH]2)cc1
    6.7	4249	-8	8	6	2	-9
CC1CN(C(=S)Nc2ccccc2)C(C)CN1C=O (stereo not given)
    0.0	4249	nt	-1	7	9	-36

Screening results: PubChem BioAssay, several laboratories
